Assay outcomes from PubChem.
YopH PTP inh: inhibitors of Yersinia enterocolitica YopH tyrosine phosphatase; fluorescence Ex485/Em525; inhibition, %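 (about 10 µM by stock and volumes)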; 140,000 compounds, 0.16% hits; AID 898;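 active means inhibition of 50% or more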;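 further: controls were vehicle for no effect and minimum signal wells for full effect; inactives centre near -20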
Arbovirus anti: arbovirus infection inhibition | arbovirus infection cell-based antiviral screen | inhibition, % at 10 µM | 200,000 compounds, 0.37% hits | AID 1251;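 active means inhibition from about 30%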;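 further: bluetongue infection of BSR cells; cell survival read as ATP light after 72 h; 0% = infected wells without compound and 100% = uninfected wells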
Mtb betalactam: beta-lactam sensitization of Mtb H37Rv; 330,000 compounds, 0.27% hits; inhibition, % at 25 µM; M. tuberculosis H37Rv growth with meropenem, percent inhibition; hits of this screen are not shown here; AID 434955;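 active means about 74% or more and at least 40 points above the plate without the antibiotic, then above 30% in a dose series; inconclusive means first-round hits that could not be retested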;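 further: growth measured after seven days incubation then overnight dye step; 0% = bacteria only wells and 100% = bacteria with antibiotic; twin plates without the antibiotic show which effects depend on it; some results filed as inactive read as strong as hits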
RecA splice inh: Mtb RecA intein splicing inhibition; cell-free RecA intein splicing, fluorescence; P9WHJ3; AID 2221; inhibition, %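 (about 9 µM by stock and volumes)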; 290,000 compounds, 0.75% hits; in the data active means inhibition above about 30%; inconclusive means no clear call, values can overlap the other calls;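 further: 0% = vehicle wells and 100% = reference inhibitor control wells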
Target sequence (P9WHJ3 whole entry, looked up, canonical isoform): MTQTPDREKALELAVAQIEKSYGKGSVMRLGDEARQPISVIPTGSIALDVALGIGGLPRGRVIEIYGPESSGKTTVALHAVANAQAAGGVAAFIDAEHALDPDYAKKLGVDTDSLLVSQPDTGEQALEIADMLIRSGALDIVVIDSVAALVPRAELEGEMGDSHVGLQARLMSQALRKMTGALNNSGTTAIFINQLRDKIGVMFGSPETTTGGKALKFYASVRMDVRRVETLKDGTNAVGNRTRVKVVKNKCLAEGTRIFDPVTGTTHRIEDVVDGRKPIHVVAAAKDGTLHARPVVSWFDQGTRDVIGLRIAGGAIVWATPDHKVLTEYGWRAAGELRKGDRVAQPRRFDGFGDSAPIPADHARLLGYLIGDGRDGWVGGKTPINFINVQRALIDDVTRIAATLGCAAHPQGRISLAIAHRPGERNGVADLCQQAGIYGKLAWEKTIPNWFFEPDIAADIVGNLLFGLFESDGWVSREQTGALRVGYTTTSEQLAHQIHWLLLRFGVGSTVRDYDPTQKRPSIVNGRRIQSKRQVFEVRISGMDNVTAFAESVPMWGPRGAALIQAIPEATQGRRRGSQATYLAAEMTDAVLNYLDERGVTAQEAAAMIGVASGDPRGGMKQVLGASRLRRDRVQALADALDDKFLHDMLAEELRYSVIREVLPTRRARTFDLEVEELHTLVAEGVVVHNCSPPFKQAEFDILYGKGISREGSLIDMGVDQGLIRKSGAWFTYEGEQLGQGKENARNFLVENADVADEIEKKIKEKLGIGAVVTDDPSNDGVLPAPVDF
Mtb growth: M. tuberculosis H37Rv growth inhibitors, H37Rv strain (AID 1626); M. tuberculosis H37Rv growth inhibition; higher % means a stronger effect; one-dose inhibition, % at 10 µM; IC50 in µM for titrated hits; 220,000 compounds, 0.95% hits;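 active means confirmed in a dose series; inconclusive means inhibition above 80% but not taken into the dose series; inactive means below 80% or under 30% at every dose of the series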;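 further: bacteria incubated seven days before Alamar blue readout; 0% = bacteria only wells and 100% = bacteria with antibiotic wells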
* = called active by the depositor; u = inconclusive; x = no result given. Not all compounds are listed; rates above refer to the full screens.

A first look:
1: COc1ccc(NC(=S)NC(NC(=O)/C=C/c2ccccc2)C(Cl)(Cl)Cl)cc1 (configuration not stated)
2: Cc1cc(C)nc(CCNC(=O)c2cc(COc3c(F)cccc3F)on2)n1
3: CCc1nc(CNC(=O)C2CCC(=O)N(Cc3cccc(OC)c3)C2)no1 (configuration not stated)
4: CCn1cc(C(=O)NCc2ccccc2F)c(=O)c2ccc(C)nc21
5: COc1cc(/C=N/Nc2ccc(Cl)c(C(=O)O)c2)ccc1OCC(=O)N1C(C)CCCC1C (configuration not stated)

assay / compound	1	2	3	4	5
YopH PTP inh	0.9	x	x	x	x
Arbovirus anti	3.0	9.5	x	x	0.3
Mtb betalactam	-11.4	-3.0	-0.1	-4.0	13.5
RecA splice inh	2.7	-0.6	3.5	5.3	0.2
Mtb growth	2.9%	-1.3%	x	x	5.1%

Results, from the start:
1: COc1ccc(NC(=S)NC(NC(=O)/C=C/c2ccccc2)C(Cl)(Cl)Cl)cc1 (configuration not stated)
2: Cc1cc(C)nc(CCNC(=O)c2cc(COc3c(F)cccc3F)on2)n1
3: CCc1nc(CNC(=O)C2CCC(=O)N(Cc3cccc(OC)c3)C2)no1 (configuration not stated)
4: CCn1cc(C(=O)NCc2ccccc2F)c(=O)c2ccc(C)nc21
5: COc1cc(/C=N/Nc2ccc(Cl)c(C(=O)O)c2)ccc1OCC(=O)N1C(C)CCCC1C (configuration not stated)
6: Cc1cc(NS(=O)(=O)c2ccc(NC(=O)/C=C/c3c(F)cccc3Cl)cc2)nc(C)n1
7: O=C(CCS(=O)(=O)c1ccc(Cl)cc1)Nc1nc(-c2cccnc2)cs1
8: COC(=O)[C@@H](NC(=O)c1ccccc1OC1CCN(S(C)(=O)=O)CC1)C(C)C
9: CCOC(=O)C1=C(C)NC(=O)CC1c1ccccc1OC (configuration not stated)
10: Cc1ccc(CSCCNC(=O)/C=C/c2ccccc2Cl)cc1

assay / compound	1	2	3	4	5	6	7	8	9	10
YopH PTP inh	0.9	x	x	x	x	x	x	x	x	-31.8
Arbovirus anti	3.0	9.5	x	x	0.3	x	x	x	2.7	7.3
Mtb betalactam	-11.4	-3.0	-0.1	-4.0	13.5	1.0	-4.9	-4.6	-6.1	-4.4
RecA splice inh	2.7	-0.6	3.5	5.3	0.2	-1.3	0.0	-0.5	-4.5	0.4
Mtb growth	2.9%	-1.3%	x	x	5.1%	x	x	x	-9.3%	-3.0%

11: CC1COC(Cn2c3ccccc3c3ccccc32)O1 (configuration not stated)
12: C/C(=N\NC(=O)COc1ccc(C)cc1Br)c1cc([N+](=O)[O-])cs1
13: O=S(=O)(NC1CCCCC1N1CCCCC1)c1ccccc1 (configuration not stated)
14: O=C(CN(C(=O)c1ccc(Cl)cc1)N1C(=O)C2C3C=CC(C3)C2C1=O)c1cccs1 (configuration not stated)
15: Cn1c2ccccc2c2cc([N+](=O)[O-])ccc21
16: CC1(C)Cc2c(sc(NC(=O)C(C)(C)C)c2C#N)C(C)(C)N1
17: Cc1cc(C)cc(N(C(=O)c2nsc(Cl)c2Cl)C(C(=O)NC2CCCC2)c2ccc(O)cc2)c1 (configuration not stated)
18: Cc1ccc(-c2csc(NCCc3nc4cc(Cl)c(Cl)cc4n3CCOCCO)n2)cc1
19: CC(C)NC(=O)N1CCC(n2nccc2NC(=O)CCOc2ccccc2)CC1
20: O=C(c1ccc([N+](=O)[O-])o1)N1CCN(c2nc3c(Cl)cccc3s2)CC1

assay / compound	11	12	13	14	15	16	17	18	19	20
YopH PTP inh	x	x	x	x	x	-18.5	-10.9	x	x	x
Arbovirus anti	x	-29.1	x	-2.5	x	2.9	-21.2	x	x	x
Mtb betalactam	2.1	98.9	-0.7	2.9	11.9	-7.0	-4.2	-4.8	-19.8	99.0
RecA splice inh	5.0	-8.1	0.6	0.4	1.6	0.4	-0.8	10.7	2.2	11.4
Mtb growth	8.5%	u	x	7.0%	2.4%	-1.5%	9.6%	1.2%	x	x

21: C/C(=N\NC(=O)c1ccc(CN2CCOCC2)cc1)c1cccc([N+](=O)[O-])c1
22: c1ccc(Cn2c(-c3cccs3)nc3nc4ccccc4nc32)cc1
23: O=C(CN1CCN(S(=O)(=O)c2ccccc2)CC1)Nc1ccc([N+](=O)[O-])cc1
24: COc1ccc(NC(=O)c2cc(-c3ccc(OC)c(OC)c3)nc3ccccc23)c(OC)c1
25: O=C1Nc2ccc(Cl)cc2C(C#CC2CC2)(C(F)(F)F)O1 (configuration not stated)
26: N#Cc1c(N)nc2c(c1N)CC(=O)N2c1ccccc1-c1ccccc1
27: Cc1nnc(-c2cccc(Br)c2)c2cn(-c3ccc(Br)cc3)nc12
28: CCOC(=O)c1c(C)[nH]c(C2=NNC(=Nc3cccc(Cl)c3)SC2)c1C
29: COc1ccc(CCNC(=O)c2cc3cc(F)ccc3nc2C)cc1OC
30: CNC(C(=O)c1ccccc1)C(OC)c1ccccc1 (configuration not stated)

assay / compound	21	22	23	24	25	26	27	28	29	30
YopH PTP inh	-29.4	-19.6	-6.5	x	x	-41.6	-23.4	-4.0	x	-22.4
Arbovirus anti	4.0	-4.5	4.6	x	x	19.1	-14.3	-23.7	x	-0.2
Mtb betalactam	-0.3	x	4.2	-0.2	-1.4	7.0	-21.1	79.1	-3.8	5.0
RecA splice inh	0.5	-8.1	2.5	0.4	8.4	-6.3	-0.3	1.3	-2.2	2.8
Mtb growth	0.7%	-1.1%	0.9%	x	x	-3.6%	13.0%	10.8%	x	-4.0%

31: CC(C)(C)c1cc(C(=O)N/N=C/c2ccncc2)n[nH]1
32: CN(Cc1ccccc1)Cc1nc2c([nH]1)c(=O)n(C)c(=O)n2C
33: CCn1ccc(C(=O)Nc2ncc(C)s2)n1
34: O=C(c1cc(S(=O)(=O)N2CCCCC2)ccc1F)N1CCC2(CC1)OCCO2
35: O=C(CCS(=O)(=O)Cc1ccccc1F)NCc1ccccc1Cl
36: Cn1c(NCCCO)nc2c1c(=O)n(Cc1ccccc1F)c(=O)n2C
37: COc1ccc(CSc2nc3ccccc3[nH]2)cc1
38: Cc1cc2cc(CN(CC3CCCO3)C(=S)Nc3ccccc3)c(=O)[nH]c2cc1C (configuration not stated)
39: Cc1cccc(N(Cc2ccc(Cl)cc2)S(C)(=O)=O)c1
40: O=C(c1cccc(NC2=NC3CS(=O)(=O)CC3S2)c1)N1CCN(c2cccc(Cl)c2)CC1 (configuration not stated)

assay / compound	31	32	33	34	35	36	37	38	39	40
YopH PTP inh	x	26.9	x	-0.7	x	-8.5	5.8	-23.7	x	x
Arbovirus anti	x	-6.5	x	-1.2	2.7	15.2	6.0	-12.5	1.5	x
Mtb betalactam	1.2	5.5	-1.9	3.3	-8.4	-21.1	-4.2	1.0	-6.0	4.5
RecA splice inh	0.8	0.1	-2.4	0.6	-1.7	x	3.9	0.9	0.9	-3.0
Mtb growth	x	0.8%	x	-4.7%	6.6%	-4.8%	5.5%	12.1%	1.6%	x

41: CCn1c(SCc2ccc(F)cc2)nnc1-c1nn(-c2ccccc2)ccc1=O
42: O=C(O)CCCNC(=O)/C(=C\C=C\c1ccccc1)NC(=O)c1ccccc1Cl
43: CN(C)CCCN(C(=O)c1ccc(S(=O)(=O)N2CCCCCC2)cc1)c1nc2ccc(Br)cc2s1
44: CCCCCC(=O)N1CCN(CCN=CC2=C(O)CC(c3ccc(OC)cc3)CC2=O)CC1 (configuration not stated)
45: C#CCOc1ccc(/C=C2/C(=O)ON=C2C)cc1OCC
46: CN(C(=O)CSc1nc(-c2ccccc2)c(-c2ccccc2)o1)C1CCS(=O)(=O)C1 (configuration not stated)
47: COc1ccccc1N1N=C(C(=O)c2ccccc2)C2C(=O)N(c3ccc(Br)cc3)C(=O)C21 (configuration not stated)
48: Cn1c(=O)c2c(nc(NCCCN3CCOCC3)n2Cc2cccc(Cl)c2)n(C)c1=O
49: O=C(c1cc(-c2ccco2)nc2ccccc12)N1CCN(c2ccc(F)cc2)CC1
50: O=C(CC(=O)N/N=C/c1ccc(C(=O)O)cc1)NCCc1ccccc1

assay / compound	41	42	43	44	45	46	47	48	49	50
YopH PTP inh	-30.1	x	x	-43.3	x	x	x	-32.5	-15.3	x
Arbovirus anti	-5.1	9.4	x	2.6	x	12.7	x	x	13.1	x
Mtb betalactam	0.9	-2.5	20.6	-1.6	1.5	5.3	2.6	9.7	69.5	-1.7
RecA splice inh	0.0	1.9	12.7	-0.4	-0.9	x	-224.6	x	6.2	-2.5
Mtb growth	12.3%	5.7%	x	-0.2%	x	-5.5%	-10.7%	-0.9%	12.2%	x

51: CCOC(=O)Cc1csc(NC(=O)CSc2nnc(-c3cccnc3)n2Cc2ccco2)n1
52: CC1CCN(S(=O)(=O)c2ccc(C(=O)Nc3nnc(-c4ccco4)o3)cc2)CC1
53: Cc1cc(=O)c2cc(Br)ccc2[nH]1
54: Cc1[nH]n(-c2c(Cl)cc(Cl)cc2Cl)c(=O)c1C=Nc1ccc(S(=O)(=O)N2CCOCC2)cc1
55: COc1ccc(CCN=C(N)NS(=O)(=O)c2ccccc2)cc1OC
56: N=c1c(S(=O)(=O)c2ccc(Cl)cc2)cc2c(=O)n3ccccc3nc2n1C1CCCCC1
57: CCC(C)C(NC(=O)C1CCC(C)CC1)C(=O)NC(C(=O)OC)C(C)C (configuration not stated)
58: CCc1c(C)c2c(C)nn(-c3ccccc3)c2oc1=O
59: CCCCOC(=O)C1[C@H]2C(=O)N(Cc3cccs3)C[C@]23C=C[C@H]1O3 (some centres not stated)
60: CCCOc1ccc(C(=O)CCC(=O)NNC(=O)c2ccncc2)cc1

assay / compound	51	52	53	54	55	56	57	58	59	60
YopH PTP inh	-29.7	x	-24.0	-37.7	-21.9	x	-12.4	-18.4	-52.5	x
Arbovirus anti	-3.9	x	17.7	7.7	0.7	x	5.5	2.0	6.6	x
Mtb betalactam	0.3	90.3	-3.2	1.7	-0.4	5.3	17.7	0.5	-5.5	97.1
RecA splice inh	-1.1	0.6	-0.9	2.1	-2.7	-28.5	-8.3	1.9	3.8	-0.3
Mtb growth	-7.3%	x	-3.9%	0.9%	1.6%	x	6.2%	-3.1%	-10.8%	x

61: Nc1nc2c(s1)COc1ccccc1-2
62: Cn1c(=O)cc(OCCCC(=O)NCc2ccco2)c2ccccc21
63: COCCn1c(N)c(N(Cc2ccccc2)C(=O)C2=COCCO2)c(=O)[nH]c1=O
64: O=C(N/C(=C/c1cccc([N+](=O)[O-])c1)C(=O)N1CCCCC1)c1cccs1
65: COc1ccc(NC(=O)c2c(C(F)(F)F)nn(C)c2Cl)cc1
66: CC1Cc2nc(SCC(=O)N3CCc4ccccc43)n(C)c(=O)c2S1 (configuration not stated)
67: COc1cc(/C=C2\SC(=S)N(Nc3ncc(C(F)(F)F)cc3Cl)C2=O)cc(OC)c1OC
68: CC1=C(C#N)C(=O)N(C2CCS(=O)(=O)C2)C(=O)/C1=C\c1ccco1 (configuration not stated)
69: CC(C)CN1CCN(Cc2cccc3cccnc23)CC1CCO (configuration not stated)
70: O=C(Cc1ccc(Cl)c(Cl)c1)NCC1(N2CCOCC2)CCCCC1

assay / compound	61	62	63	64	65	66	67	68	69	70
YopH PTP inh	x	-24.1	x	-31.9	x	-28.2	-9.9	x	x	x
Arbovirus anti	-10.8	-17.0	x	0.8	-0.6	6.9	-4.5	x	3.5	2.6
Mtb betalactam	64.8	-6.2	-3.4	0.4	-12.1	-1.3	16.5	4.7	1.0	2.3
RecA splice inh	-3.4	-2.4	-0.3	-3.8	-0.5	0.2	0.3	27.7	-1.1	4.1
Mtb growth	>100µM*	-7.2%	x	-2.3%	3.3%	x	-4.8%	6.0%	-7.7%	-2.9%

71: Cc1nc2c(-c3ccc(F)cc3)c(C)[nH]n2c(=O)c1Cl
72: COc1ccc(/C=C/C(=O)Nc2nc(C)c(C(=O)N(C)C)s2)cc1OC
73: Cc1ccc(C(=O)c2cc3ccccc3o2)cc1C
74: COc1ccccc1N(C)C(=O)c1cc(S(=O)(=O)N2CCc3ccccc32)cn1C
75: FC(F)(F)c1ccc(-n2ccnc2)nc1

assay / compound	71	72	73	74	75
YopH PTP inh	x	-20.2	-14.6	x	-40.2
Arbovirus anti	x	-1.6	-2.4	x	10.3
Mtb betalactam	91.2	-1.1	32.6	2.1	-8.5
RecA splice inh	42.7*	0.6	5.3	4.1	-1.4
Mtb growth	x	-3.4%	8.0%	x	1.1%
